Compound activity (PubChem)
LANA-H2A inh: blocks KSHV LANA binding to histone H2A/H2B; Q9QR71; cell-free LANA-H2A/H2B peptide, fluorescence polarization; inhibition, % (concentration not given with the values); actives 0.6% (n = 320,000); in the data active = inhibition mostly above about 10%, no sharp cut-off; inactive = mostly below about 6.7%;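 also: stock transfer was 7.5 nL into about 10 µL; 0% = median of vehicle wells and 100% = median of positive control wells; one replicate is shown; the record names a cut of 25% in any replicate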
Beta apoptosis: beta cell apoptosis inhibition; INS-1E cytokine-induced death, ATP luminescence, 48 h; percent of positive-control rescue, neutral wells zero; protection from apoptosis, % (concentration not given with the values); actives 0.8% (n = 300,000); AID 435005;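 active = all replicates at 75% or more, or half of them and the mean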;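 also: 0% = cytokine-treated negative control wells and 100% = positive control rescue; higher means more ATP so stronger rescue from cytokine killing; wells of about 40 µL received 100 nL stock; the first replicate is given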
Calb FLC: C. albicans growth modulation with fluconazole | C. albicans CaCi-2 (fluconazole-resistant clinical isolate) + fluconazole, Alamar Blue growth, 48 h | growth inhibition, % (test concentration not listed) | actives 0.57% (n = 300,000) | AID 1979;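 active = most replicates above 75%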;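 also: all wells also contain fluconazole at 8 µg/ml as a sub-toxic cotreatment; 0% = median of DMSO wells and 100% = median of geldanamycin control wells; wells of about 8 µL received 7.5 nL stock; the first replicate is given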
Bfl-1 A1 inh: inhibitors of the anti-apoptotic protein A1, read as caspase activation; MEF A1-2A-BIM cells, Caspase-Glo 3/7 luminescence, 3 h; percent of clofoctol response, vehicle zero; caspase activation, % (test concentration not listed); actives 0.066% (n = 330,000);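 active = over half of replicate activation scores above 10%, or exactly half above 10 with the replicate mean above 10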;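 also: wells of about 30 µL received 50 nL stock; many hits fall short of the cut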
T cruzi repl: T. cruzi replication inhibition | actives 1.4% (n = 300,000) | inhibition, % (test concentration not listed) | AID 1885 | T. cruzi beta-gal in NIH3T3, luminescence, 90 h;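 active = mean inhibition across valid replicates above about 55%, limit read from the data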;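 also: signal also drops with host cell toxicity which is not excluded here; 0% = plate median of DMSO wells and 100% = zero luminescence signal; higher percent means less beta-gal luminescence so fewer parasites; stock transfer was 50 nL into about 50 µL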
RanGTP-Impb inh: disruptors of Ran-importin-beta complex formation – biochemical, FRET, CFP-Ran, YFP-importin-beta, homogeneous, primary screen | cell-free CFP-Ran/YFP-importin-beta FRET ratio | inhibition, % (no concentration beside the values) | actives 1.1% (n = 300,000) | AID 2216;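 active = most replicates above 15%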;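 also: 0% = DMSO wells and 100% = Ran loaded with GDP instead of GTP; wells of about 40 µL received 100 nL stock; the first replicate is given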
Beta2AR agonist: human beta-2 adrenergic receptor agonism by FAP. P07550. Am2.2-beta2AR cells, FAP receptor internalization, flow cytometry; reference of the scale not given here. response, % (no concentration beside the values). actives 0.43% (n = 340,000);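 active = response above a set limit, near 3 SD of response in nonfluorescent compounds, cut at about 42% in these data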;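 also: stock transfer was 100 nL into about 11 µL; a reference agonist was the positive control; negative values mostly stem from fluorescent compounds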
Target sequence (P07550 whole entry, looked up): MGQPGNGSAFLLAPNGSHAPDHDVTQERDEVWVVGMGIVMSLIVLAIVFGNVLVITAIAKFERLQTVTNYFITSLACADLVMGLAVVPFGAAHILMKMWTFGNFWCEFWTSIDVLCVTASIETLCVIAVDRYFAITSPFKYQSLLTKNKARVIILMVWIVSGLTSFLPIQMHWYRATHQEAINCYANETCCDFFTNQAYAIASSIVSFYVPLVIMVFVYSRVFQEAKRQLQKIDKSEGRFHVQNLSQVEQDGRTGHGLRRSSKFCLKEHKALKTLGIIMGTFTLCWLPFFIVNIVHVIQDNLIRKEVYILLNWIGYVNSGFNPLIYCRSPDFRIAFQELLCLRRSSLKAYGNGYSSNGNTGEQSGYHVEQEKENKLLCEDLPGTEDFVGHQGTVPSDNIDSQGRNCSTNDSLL
UCH37 inh: inhibitors of human deubiquitinating enzyme UCH37; Q9Y5K5; purified proteasome/UCH37, Ub-AMC cleavage fluorescence; inhibition, % (no concentration beside the values); actives 0.33% (n = 330,000); AID 588478;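 active = mean of two replicates above 20%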;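 also: 0% = compound-free wells with enzyme and 100% = wells lacking proteasome; stock transfer was 100 nL into about 20 µL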
Target sequence (Q9Y5K5 whole entry, looked up): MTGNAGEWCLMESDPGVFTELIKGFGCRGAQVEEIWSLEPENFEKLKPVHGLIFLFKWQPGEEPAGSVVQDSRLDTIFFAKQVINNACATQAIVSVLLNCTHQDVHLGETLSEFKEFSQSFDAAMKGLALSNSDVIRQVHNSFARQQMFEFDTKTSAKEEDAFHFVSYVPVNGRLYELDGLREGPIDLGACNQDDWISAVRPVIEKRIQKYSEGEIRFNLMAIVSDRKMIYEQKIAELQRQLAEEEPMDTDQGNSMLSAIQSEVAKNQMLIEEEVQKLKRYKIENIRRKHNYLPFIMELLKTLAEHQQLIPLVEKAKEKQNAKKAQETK
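Material: human UCH37 enzyme supplied as purified proteasome complex. Measure: % inhibition of Ub-AMC cleavage fluorescence. Medium: pH 7.4 Tris-HCl (50 mM) with ovalbumin, ATP-MgCl2, DTT. Times: 30 min preincubation with enzyme, 25 min cleavage at room temperature. Detection: AMC fluorescence intensity at 355/460 nm.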
* marks the source's active call; other numbers are inactive results; . = not tested or not shown.

Each structure is followed by: LANA-H2A inh, Beta apoptosis, Calb FLC, Bfl-1 A1 inh, T cruzi repl, RanGTP-Impb inh, Beta2AR agonist, UCH37 inh
> COc1ccc(N2CCN(C(=S)Nc3cccc(C)c3C)CC2)cc1
  1.9, 5, -16, 0.0, -6, 4.2, 8, 1.8
> O=[N+]([O-])c1cccnc1SCc1ccccc1
  -3.1, -7, 1, -0.7, -14, -3.4, -11, 3.0
> O=C1c2ccccc2C(=O)N1Cc1nc2ccccc2o1
  5.2, -1, 6, -0.6, ., ., 6, 1.7
> CC1(C)CC(=O)C(N=Nc2ccc(S(=O)(=O)N3CCOCC3)cc2)=C(O)C1
  0.0, -9, -2, 0.4, -9, 0.3, -6, 9.9
> NC(=O)C1CCN(c2oc(-c3cccs3)nc2S(=O)(=O)c2ccc(Cl)cc2)CC1
  2.7, -5, ., 1.3, ., ., 7, 2.5
> CC1CCN(CC(O)COc2ccc(C(=O)c3ccccc3)cc2)CC1 (stereo not given)
  -6.2, -2, -4, 0.2, 19, 2.6, -6, 3.8
> CCc1nc2ccc(C(=O)N(C)CC(=O)Nc3ccc(Cl)c(C(F)(F)F)c3)cc2nc1CC
  -0.1, -1, -6, 0.0, 4, 1.6, 11, 4.6
> CCn1c2ccccc2c2cc(NC(=O)c3cccc(OC)c3OC)ccc21
  0.8, 9, 2, 1.4, 49, 3.9, 27, -9.3
> Cc1ccc(S(=O)(=O)NCC(=O)OCC(=O)N2CC(C)OC(C)C2)cc1 (stereo not given)
  3.1, -2, ., 0.1, ., ., 0, 2.6
> COc1ccc(N2CCN(C(=O)NCc3cccc(OC)c3)CC2)cc1
  2.7, -1, 0, 0.2, 7, -2.0, 3, .
> CS(=O)(=O)c1ccc(CNC(=O)[C@]2(C(F)(F)F)C[C@H](CCc3ccccc3)CCCO2)cc1
  -1.5, -4, 6, 0.0, 4, -0.8, 3, 0.0
> COc1cccc(-n2nc(C(=O)N3CCN(Cc4ccccc4)CC3)c3ccccc3c2=O)c1
  2.4, -4, 13, 0.4, 46, 3.5, -6, 3.5
> COc1ccc(Cc2nnc(SCC(=O)Nc3ccc(C)cc3C)[nH]c2=O)cc1
  -2.5, ., -6, -0.4, -3, 2.7, 2, 3.9
> CC(C)[C@H](NC(=O)c1cccc(CN(Cc2ccccc2)C(=O)c2ccccc2)c1)C(=O)O
  -1.7, -5, 4, 0.4, -7, 6.8, 4, 0.7
> Cc1ccc(N(CC(=O)N2CCN(Cc3ccccc3)CC2)S(C)(=O)=O)cc1C
  -1.2, 0, -7, 0.1, 0, -2.6, 3, 0.9
> CCOc1ccc(Nc2nc(Cc3nnc(SCC(=O)O)o3)cs2)cc1
  -0.6, ., 0, 1.3, -12, -1.8, 4, 3.7
> Cc1cc(C)nc(Sc2ccc([N+](=O)[O-])cc2[N+](=O)[O-])n1
  -0.7, -17, -4, -0.5, 13, 0.7, -4, 1.2
> Cc1ccc2nc(N3CCN(C(=O)c4ccco4)CC3)c3nncn3c2c1
  -3.6, 8, -7, -0.8, -4, -1.2, -8, 1.5
> COc1ccc(N2CCN(c3oc(Cc4cccc5ccccc45)nc3C#N)CC2)cc1
  -1.6, 6, -2, 0.6, 25, 0.1, 4, -1.0
> CCOCCCNC(=O)c1cc(Sc2nnc(C)s2)nc2ccccc12
  -2.2, 4, -3, 0.8, 8, -2.4, 6, 1.8

The list goes on (six carried over from the part before).
Each structure is followed by: LANA-H2A inh, Beta apoptosis, Calb FLC, Bfl-1 A1 inh, T cruzi repl, RanGTP-Impb inh, Beta2AR agonist, UCH37 inh
> Cc1ccc(N(CC(=O)N2CCN(Cc3ccccc3)CC2)S(C)(=O)=O)cc1C
  -1.2, 0, -7, 0.1, 0, -2.6, 3, 0.9
> CCOc1ccc(Nc2nc(Cc3nnc(SCC(=O)O)o3)cs2)cc1
  -0.6, ., 0, 1.3, -12, -1.8, 4, 3.7
> Cc1cc(C)nc(Sc2ccc([N+](=O)[O-])cc2[N+](=O)[O-])n1
  -0.7, -17, -4, -0.5, 13, 0.7, -4, 1.2
> Cc1ccc2nc(N3CCN(C(=O)c4ccco4)CC3)c3nncn3c2c1
  -3.6, 8, -7, -0.8, -4, -1.2, -8, 1.5
> COc1ccc(N2CCN(c3oc(Cc4cccc5ccccc45)nc3C#N)CC2)cc1
  -1.6, 6, -2, 0.6, 25, 0.1, 4, -1.0
> CCOCCCNC(=O)c1cc(Sc2nnc(C)s2)nc2ccccc12
  -2.2, 4, -3, 0.8, 8, -2.4, 6, 1.8
> N#Cc1c(-c2ccccc2)nc(SCC(=O)Nc2ccc(OC(F)(F)Cl)cc2)[nH]c1=O
  1.4, ., 9, -0.4, -9, 5.6, -21, 11
> CC1(NC(=O)C2CCN(C(=O)Nc3ccccc3)CC2)CCS(=O)(=O)C1 (stereo not given)
  0.6, -6, 4, 0.1, -12, -0.7, 3, .
> C=CCn1c(O)c2ccc(C(=O)N=NC(=O)COc3ccc(OC)cc3)cc2c1O
  1.7, -4, 0, 0.1, -19, 0.9, -6, -2.6
> CC(C)(C)OC(=O)C[C@H]1C/C=C\C[C@H](CC(=O)N[C@H](CO)Cc2ccccc2)C(=O)N[C@H](C(C)(C)C)COC1=O
  4.6, 2, ., -1.2, ., ., -3, 1.3
> COc1ccccc1-n1c(SCC(=O)Nc2ccccc2C)nc(O)cc1=O
  6.2, -5, -4, -0.4, 12, 0.9, -1, 2.8
> CCOc1ccc(S(=O)(=O)N2CCN(C(=O)c3cc([N+](=O)[O-])ccc3N3CCOCC3)CC2)cc1
  0.0, -7, ., 0.2, ., ., -2, 4.2
> CC(C)(C)c1ccc(C(=O)N2CCC(C(=O)NCC3CCCO3)CC2)cc1 (stereo not given)
  2.0, 4, -9, 0.3, -2, 0.5, 5, 2.8
> O=C(CSc1ccc(-c2ccncc2)nn1)N1CCCCC1
  -1.6, 4, -10, -1.7, 8, 1.8, -1, 1.6
> O=C(COC(=O)c1cc([N+](=O)[O-])ccc1N1CCOCC1)NC1CCS(=O)(=O)C1 (stereo not given)
  -1.0, -4, 5, 0.4, -13, 0.9, 6, 7.2
> CCSc1nc(O)c(C2OC(=O)c3c2ccc(OC)c3OC)c(=O)n1-c1ccccc1 (stereo not given)
  3.0, -4, 8, 0.0, -10, 0.2, 0, 4.3
> COc1cccc(CN(c2ccc3c(c2)CCC3)S(=O)(=O)c2ccc(-n3cnnn3)c(OC)c2)c1
  -7.4, -1, -7, -0.7, 34, 0.7, -2, -0.6
> C=CCn1c(C(C)NC(=O)CCC)nc2ccccc21 (stereo not given)
  -2.5, ., -11, -0.5, 7, 1.0, -6, 2.3
> CCN(CC(=O)Nc1c(F)cccc1F)C(=O)c1ccc(C(F)(F)F)cc1
  3.1, -7, 5, 0.7, -13, 4.8, 4, 1.4
> O=C(CNC(=S)NC(=O)c1cccc([N+](=O)[O-])c1)c1ccccc1
  -11, 1, 19, -0.2, -20, ., -1, 3.7
> CCCn1c(SCC(=O)NC2CCCCC2)nnc1C1CC1
  2.0, ., 0, 2.3, 2, 7.3, -18, 1.8
> Cc1ccc(-n2c3c(cc(C(=O)O)c2=O)C(=O)CC(C)(C)C3)cc1
  3.8, 1, -8, 0.5, 3, 4.2, -5, 2.1
> Cc1ccc(C(=O)c2cccc(N)c2)cc1C
  -0.5, -4, -2, -2.4, 3, 2.1, 6, -0.2
> Nc1nc(-c2ccccc2)cc(N2CCCCC2)n1
  0.8, 12, -24, 0.2, 10, 0.2, -1, 1.7
> O=C(Nc1ccc(C2=NCCN2)cc1)c1ccc(C(=O)Nc2ccc(C3=NCCN3)cc2)c([N+](=O)[O-])c1
  -1.4, 20, 107*, 0.1, 14, -5.0, 8, .
> Cc1cc(NC(=O)C(C)SCC(=O)N(C)Cc2c(F)cccc2Cl)no1 (stereo not given)
  -4.4, -3, ., -0.8, ., ., -2, 1.7
> Cn1nnnc1SCC(=O)N(C1CCCCC1)C1CCCCC1
  0.1, -1, 16, 1.6, 16, -3.3, 3, .
> CC(OC(=O)COc1ccc(C#N)cc1)C(=O)Nc1ccc(Cl)cn1 (stereo not given)
  2.2, 3, 2, 0.7, -6, -1.5, 0, 5.5
> O=C(COC(=O)c1n[nH]c(=O)c2ccccc12)c1ccc(Cl)cc1
  -6.8, -12, -5, -0.2, -13, 0.3, -5, .
> Cc1ccc(NC(=S)N(CCCN2CCC(C)CC2)Cc2ccco2)cc1C
  1.7, -7, 3, 0.8, 14, 0.5, 8, -0.7
> O=C(COC(=O)c1ccc2c(c1)OCO2)Nc1ccccc1
  0.8, -3, -12, 0.0, -10, -0.2, 16, -0.9
> O=C(COC(=O)c1cn(-c2ccccc2)nc1-c1ccccc1)c1cccc([N+](=O)[O-])c1
  4.4, 102*, -4, -0.2, 20, 0.7, 0, 1.4
> O=C1N(c2ccccc2C(F)(F)F)O[C@]1(c1ccccc1)C1CCCCC1
  7.9, -4, ., 1.2, ., ., 10, 5.0
> Cc1cccc(C(=O)NC(C)C2CC3CCC2C3)c1 (stereo not given)
  0.6, ., -6, -0.2, ., -3.9, -5, 6.6
> Cn1c(=O)c(C(=O)CCl)c(N)n(CC2CC2)c1=O
  4.8, -6, ., 0.3, ., ., -2, 5.7
> CC1=NN(C(N)=S)C(=O)C1N=Nc1cccc(C)c1 (stereo not given)
  -0.7, 32, -4, -6.1, -10, 1.1, 3, 7.4
> Cn1c(=O)c2c(nc(Oc3cccc(O)c3)n2C)n(C)c1=O
  -4.4, 5, -3, -0.3, -4, -3.0, -6, -0.6
> CCC(=O)Nc1ccc(NC(=O)CSc2nnc(-c3ccco3)n2C)cc1
  6.2, -19, -4, -0.5, 11, -3.1, 5, 4.4
> CCOc1ccccc1NC(=O)CSc1nc2ccccc2nc1N1CCOCC1
  -2.8, 7, -14, -0.1, 0, -5.3, -3, 1.0
> O=C(NCCS(=O)(=O)NCc1ccccn1)c1ccccc1
  -2.2, -6, -2, 0.1, -3, 0.0, 0, 0.0
> Cc1ccc(NC(=S)N2CCN(S(C)(=O)=O)CC2)cc1Cl
  -0.2, -10, -8, 0.2, -14, 2.4, -8, 0.4
